Bioassay records as filed in PubChem BioAssay.
RPL19A-GFP yeast: modulators of TOR pathway RPL19A-GFP in S. cerevisiae. S. cerevisiae RPL19A-GFP strain, flow cytometry, 3 h; stronger effect = lower value. hit rate 0.3% among 330,000. percent response vs DMSO, % at 10 µM. AID 2025;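 active = percent response vs DMSO below 50%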;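 also: median channel GFP fluorescence of the barcoded RPL19A-GFP strain; ratio of sample median GFP to plate DMSO average so 100% = DMSO; lower means less RPL19A-GFP as with rapamycin TOR inhibition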
AGP1 TOR yeast: yeast TOR pathway AGP1-GFP modulation. GFP response vs DMSO, % at 10 µM. S. cerevisiae AGP1-GFP multiplex flow cytometry, 3 h; GFP as percent of DMSO wells. hit rate 0.02% among 320,000. AID 2066;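 active = GFP response relative to DMSO above a set limit, near screen average plus 3 SD, cut at about 150% in these data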;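 also: median GFP channel fluorescence of the gated AGP1 strain per well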
MEP2-GFP yeast: modulators of TOR pathway MEP2-GFP in S. cerevisiae; S. cerevisiae MEP2-GFP strain, flow cytometry GFP, 3 h; 100% = DMSO control level; GFP response vs DMSO, % at 10 µM; hit rate 0.51% among 330,000;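 active = GFP response versus DMSO above a set limit, roughly screen mean plus 3 SD, cut at about 180% in these data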;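 also: median GFP fluorescence of the barcode-gated MEP2-GFP cells per well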
CIT2-GFP yeast: alters CIT2-GFP fluorescence in TOR pathway yeast screen; S. cerevisiae CIT2-GFP strain, flow cytometry, 3 h; 100 means same as DMSO wells; GFP response vs DMSO, % at 10 µM; hit rate 0.065% among 320,000; AID 2029;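 active = GFP response relative to DMSO above a set limit, near the screen mean plus 3 SD, cut at about 150% in these data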;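 also: ratio of well median GFP fluorescence to mean of DMSO wells on the plate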
LAP4 TOR yeast: modulators of TOR pathway LAP4-GFP in S. cerevisiae | GFP response vs DMSO, % at 10 µM | S. cerevisiae LAP4-GFP multiplex, flow cytometry GFP, 3 h; median GFP as percent of DMSO wells | hit rate 0.34% among 320,000;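 active = GFP response vs DMSO above a set limit, about the screen mean plus 3 SD, cut at about 150% in these data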
VLA-4 inh: inhibition in a human VLA-4 binding assay | P13612 | VLA-4 expressing cells, ligand binding flow cytometry | inhibition, % (about 7 µM as worked out from the volumes in the protocol) | hit rate 0.2% among 330,000 | AID 2557; in the data active = inhibition above about 50%
Target sequence (P13612 whole entry, looked up): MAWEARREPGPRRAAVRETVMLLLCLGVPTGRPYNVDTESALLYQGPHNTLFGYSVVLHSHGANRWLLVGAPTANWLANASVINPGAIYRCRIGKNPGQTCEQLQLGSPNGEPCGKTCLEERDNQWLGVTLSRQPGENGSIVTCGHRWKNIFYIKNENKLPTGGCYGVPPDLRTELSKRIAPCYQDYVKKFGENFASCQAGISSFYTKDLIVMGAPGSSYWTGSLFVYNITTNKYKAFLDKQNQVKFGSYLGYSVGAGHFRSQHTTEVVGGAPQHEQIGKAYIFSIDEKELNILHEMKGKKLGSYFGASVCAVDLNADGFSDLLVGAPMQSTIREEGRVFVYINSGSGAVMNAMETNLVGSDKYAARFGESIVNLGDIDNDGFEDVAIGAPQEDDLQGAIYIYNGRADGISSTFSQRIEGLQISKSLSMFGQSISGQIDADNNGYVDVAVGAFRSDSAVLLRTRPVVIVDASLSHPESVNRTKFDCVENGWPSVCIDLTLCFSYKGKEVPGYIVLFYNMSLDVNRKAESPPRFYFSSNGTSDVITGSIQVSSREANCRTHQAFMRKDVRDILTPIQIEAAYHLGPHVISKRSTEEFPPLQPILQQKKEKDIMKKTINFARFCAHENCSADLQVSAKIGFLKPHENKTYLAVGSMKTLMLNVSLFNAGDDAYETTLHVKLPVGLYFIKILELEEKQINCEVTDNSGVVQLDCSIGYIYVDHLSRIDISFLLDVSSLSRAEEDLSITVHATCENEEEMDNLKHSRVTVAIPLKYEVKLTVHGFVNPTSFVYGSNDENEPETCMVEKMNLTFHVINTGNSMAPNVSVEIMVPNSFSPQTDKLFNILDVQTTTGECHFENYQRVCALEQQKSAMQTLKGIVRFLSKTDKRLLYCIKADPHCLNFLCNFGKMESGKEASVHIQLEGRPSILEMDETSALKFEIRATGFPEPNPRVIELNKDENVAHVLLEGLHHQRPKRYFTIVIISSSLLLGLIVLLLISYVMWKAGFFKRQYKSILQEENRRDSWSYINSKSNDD
* = called active by the depositor; . = not tested or not shown.

Assay codes: A = RPL19A-GFP yeast; B = AGP1 TOR yeast; C = MEP2-GFP yeast; D = CIT2-GFP yeast; E = LAP4 TOR yeast; F = VLA-4 inh
CC(C)(C)NCC(O)c1cc(O)cc(O)c1 (stereo not given)
  A = 101; B = 83; C = 100; D = 79; E = 105; F = -3
O=C(CCS(=O)(=O)c1ccc(Br)cc1)NCCC1=CCCCC1
  A = 94; B = 93; C = 108; D = 95; E = 91; F = 8
CN[C@@H]1CC[C@H](c2ccc(Cl)c(Cl)c2)c2ccccc21
  A = 110; B = 104; C = 111; D = 107; E = 96; F = 7
CC(C)NCC(O)c1cc(O)cc(O)c1 (stereo not given)
  A = 95; B = 83; C = 94; D = 83; E = 97; F = 11
CN1CCN(C(=O)c2ccc(NS(=O)(=O)c3ccccc3)cc2)CC1
  A = .; B = .; C = .; D = .; E = .; F = 12
CC(C)NCC(O)c1ccc(O)c(O)c1 (stereo not given)
  A = 106; B = 99; C = 100; D = 105; E = 106; F = 7
NC(=O)C1CCN(C(=O)Nc2ccccc2)CC1
  A = 96; B = 104; C = 98; D = 91; E = 109; F = 38
Cc1cc(C)c(/C=C2\C(=O)Nc3ccccc32)[nH]1
  A = 104; B = 94; C = 101; D = 111; E = 112; F = -87

Quoted from the listing.
CC(C)NCC(O)c1ccc(O)c(O)c1 (stereo not given) in VLA-4 inh is listed with 7
CN1CCN(C(=O)c2ccc(NS(=O)(=O)c3ccccc3)cc2)CC1 in VLA-4 inh is listed with 12
CN[C@@H]1CC[C@H](c2ccc(Cl)c(Cl)c2)c2ccccc21 in CIT2-GFP yeast is listed with 107

Arranged by heavy-atom count (high to low): part of the list above.
Assay codes: A = RPL19A-GFP yeast; B = AGP1 TOR yeast; C = MEP2-GFP yeast; D = CIT2-GFP yeast; E = LAP4 TOR yeast; F = VLA-4 inh
CN[C@@H]1CC[C@H](c2ccc(Cl)c(Cl)c2)c2ccccc21
  A = 110; B = 104; C = 111; D = 107; E = 96; F = 7
NC(=O)C1CCN(C(=O)Nc2ccccc2)CC1
  A = 96; B = 104; C = 98; D = 91; E = 109; F = 38
CC(C)NCC(O)c1ccc(O)c(O)c1 (stereo not given)
  A = 106; B = 99; C = 100; D = 105; E = 106; F = 7

A section from the list above:
Assay codes: A = RPL19A-GFP yeast; B = AGP1 TOR yeast; C = MEP2-GFP yeast; D = CIT2-GFP yeast; E = LAP4 TOR yeast; F = VLA-4 inh
CC(C)NCC(O)c1cc(O)cc(O)c1 (stereo not given)
  A = 95; B = 83; C = 94; D = 83; E = 97; F = 11
CN1CCN(C(=O)c2ccc(NS(=O)(=O)c3ccccc3)cc2)CC1
  A = .; B = .; C = .; D = .; E = .; F = 12

A portion of the library, so the mix of outcomes need not match the whole.
